# RanGTP-Imp inh – inhibitors of RanGTP-importin-beta interaction, primary screen, biochemical, FRET, CFP-Ran, YFP-importin-beta, homogeneous; cell-free CFP-Ran/YFP-importin-beta FRET ratio; inhibition, % (concentration not given with the values); 300,000 tested, 1.1% active;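 active means most replicates above 15%; inconclusive means exactly half above 15%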;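 further: 0% = DMSO wells and 100% = Ran loaded with GDP instead of GTP; wells of about 40 µL received 100 nL stock; the first replicate is given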
# FGF22 binding – FGF22 (human) thermal shift binding. Q9HCT0. recombinant FGF22 thermal shift, SYPRO orange fluorescence; percent of sucrose octasulfate shift, DMSO zero. calls only at 9.99 µM. 340,000 tested, 1.5% active. AID 651658;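 active means melting point raised past a set limit in the mean and every replicate; inconclusive means no clear call; three in four hits are not shown here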
# Target sequence (Q9HCT0 whole entry, looked up): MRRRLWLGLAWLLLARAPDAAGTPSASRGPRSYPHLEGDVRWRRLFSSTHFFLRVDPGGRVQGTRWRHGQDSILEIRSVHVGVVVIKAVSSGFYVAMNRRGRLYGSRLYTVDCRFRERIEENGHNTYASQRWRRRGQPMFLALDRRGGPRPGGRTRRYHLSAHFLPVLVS
# T cruzi inh – T. cruzi replication inhibition; 300,000 tested, 1.4% active; AID 1885; inhibition, % (test concentration not listed); T. cruzi beta-gal in NIH3T3, luminescence, 90 h;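 active means mean inhibition across valid replicates above about 55%, limit read from the data; inconclusive means mean below that limit but half or more replicates reach it; inactive means mean below it, under half of replicates reach it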;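 further: signal also drops with host cell toxicity which is not excluded here; 0% = plate median of DMSO wells and 100% = zero luminescence signal; higher percent means less beta-gal luminescence so fewer parasites; stock transfer was 50 nL into about 50 µL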
# MLL AF4-AF9 inh – blocks AF4 peptide binding to human AF9 | AlphaScreen, biotin-AF4 peptide binding to FLAG-AF9 | 350,000 tested, 0.47% active | AID 651704 | inhibition, % at 10 µM;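 active means every replicate reaching a set inhibition limit, whatever the replicate mean, cut at about 25% in these data; inconclusive means mean inhibition reaches that limit but some replicates miss it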;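 further: 0% = plate neutral control median and 100% = total signal loss; the record names both 10 and 1 µM as test concentration; the first replicate is given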
# Target sequence (P42568 whole entry, looked up): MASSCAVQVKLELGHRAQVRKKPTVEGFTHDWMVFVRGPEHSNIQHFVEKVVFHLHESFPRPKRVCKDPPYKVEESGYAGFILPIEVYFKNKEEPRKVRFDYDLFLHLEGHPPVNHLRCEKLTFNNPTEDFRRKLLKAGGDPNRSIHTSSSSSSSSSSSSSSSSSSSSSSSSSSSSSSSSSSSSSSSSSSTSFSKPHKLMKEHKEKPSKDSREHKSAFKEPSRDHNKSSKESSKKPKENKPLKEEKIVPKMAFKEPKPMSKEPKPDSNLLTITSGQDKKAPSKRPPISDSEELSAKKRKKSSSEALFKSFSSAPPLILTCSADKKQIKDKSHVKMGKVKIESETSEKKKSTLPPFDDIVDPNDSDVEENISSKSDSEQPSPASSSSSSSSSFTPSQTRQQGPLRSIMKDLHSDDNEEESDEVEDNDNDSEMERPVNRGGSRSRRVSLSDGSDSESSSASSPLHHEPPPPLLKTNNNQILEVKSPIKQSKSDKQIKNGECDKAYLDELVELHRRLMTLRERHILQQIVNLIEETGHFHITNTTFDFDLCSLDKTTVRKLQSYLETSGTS
# rRNA inh HTS – selective bacterial rRNA inhibition in E. coli | E. coli WT GFP vs humanized-ribosome RFP mutants, fluorescence, 24 h; hits give low values; DMSO median 0, no signal -100 | GFP signal change (wild-type ribosome), % (test concentration not listed) | 350,000 tested, 1.6% active | AID 720706;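 active means significant combined selectivity score with lowered wild-type GFP, culture density cut under 30%, mutant RFP and density less affected; inactive means any of these conditions unmet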; further: one replicate is shown; some compounds called inactive have numbers as strong as hits
# Calb FLC – affects C. albicans growth with fluconazole; 300,000 tested, 0.57% active; growth inhibition, % (no concentration beside the values); C. albicans CaCi-2 (fluconazole-resistant clinical isolate) + fluconazole, Alamar Blue growth, 48 h; AID 1979;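 active means most replicates above 75%; inconclusive means exactly half above 75%; inactive means most below 75%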;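 further: all wells also contain fluconazole at 8 µg/ml as a sub-toxic cotreatment; 0% = median of DMSO wells and 100% = median of geldanamycin control wells; wells of about 8 µL received 7.5 nL stock; the first replicate is given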
# ALR inh – inhibitors of human sulfhydryl oxidase ALR; inhibition, % (test concentration not listed); purified ALR, DTT oxidation, H2O2 HRP-luminol luminescence; AID 485317; 290,000 tested, 3.8% active; P55789;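 active means mean and each replicate at 75% or more; inconclusive means only one of the two met; inactive means neither met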;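 further: stock transfer was 7.5 nL into about 7.5 µL; 0% = neutral wells and 100% = wells with inactivated enzyme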
# Target sequence (P55789 whole entry, looked up): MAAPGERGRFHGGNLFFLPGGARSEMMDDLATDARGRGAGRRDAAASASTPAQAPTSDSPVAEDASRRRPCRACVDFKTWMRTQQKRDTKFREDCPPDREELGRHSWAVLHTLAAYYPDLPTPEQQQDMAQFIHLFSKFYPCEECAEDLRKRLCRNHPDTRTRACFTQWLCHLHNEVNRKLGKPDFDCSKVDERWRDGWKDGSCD
# Beta apoptosis – blocks beta cell apoptosis; INS-1E cytokine-induced death, ATP luminescence, 48 h; percent of positive-control rescue, neutral wells zero; protection from apoptosis, % (concentration not given with the values); 300,000 tested, 0.8% active; AID 435005;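 active means all replicates at 75% or more, or half of them and the mean; inconclusive means half reach 75% but not the mean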;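 further: 0% = cytokine-treated negative control wells and 100% = positive control rescue; higher means more ATP so stronger rescue from cytokine killing; wells of about 40 µL received 100 nL stock; the first replicate is given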
# rRNA inh HTS OD600 – recorded beside rRNA inh HTS, whose call it bears; OD600 change, %; measured here: OD600 growth;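 optical density of the mix in the first replicate; 0 = DMSO median and -100 = no signal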
# rRNA inh HTS RFP – also measured in rRNA inh HTS; calls as there; RFP signal change, %; measured here: RFP humanized mutant strains;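 first replicate; 0 = DMSO median and -100 = no signal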
# An asterisk follows results filed as active; i = inactive; ? = inconclusive; . = no result given; & = joins results of further samples. The list is partial. The share of hits here may be higher or lower than overall.
SMILES,RanGTP-Imp inh,FGF22 binding,T cruzi inh,MLL AF4-AF9 inh,rRNA inh HTS,rRNA inh HTS OD600,rRNA inh HTS RFP,Calb FLC,ALR inh,Beta apoptosis
CN(C)S(=O)(=O)c1cccc(NC(=O)/C=C/c2ccc(S(=O)(=O)N3CCOCC3)cc2)c1,.,i,.,-4.0,-10,-9,0.2,.,-7,14
CN1C(=O)C(CC(=O)Nc2ccc3c(c2)Cc2ccccc2-3)N(C)C1=O (stereo not given),3.0,.,-5,.,.,.,.,2,-8,-6
CCc1ccc(OCCCC(=O)Nc2ccc(N3CCCCC3)cc2)cc1,-1.9,.,28,.,.,.,.,-2,22,4
COc1ccc(C(=O)N(C)C2(C)CCS(=O)(=O)C2)cc1OC (stereo not given),-1.6,i,-5,-44,6,11,0.0,-6,0,-7
COc1ccccc1NC(=O)CSc1nnnn1-c1ccc2c(c1)OCO2,-3.2,i,25,0.1,6,6,-1.0,0,-1,-8
O=C(NCC(c1ccc(F)cc1)N1CCOCC1)c1cccnc1Sc1ccccc1 (stereo not given),-1.7,i,-6,0.0,3,4,-1.4,5,-3,-1
CCC(=O)Nc1c(-c2cccs2)c(=O)c2ccccc2n1C,-1.3,.,0,.,.,.,.,-9,.,-4
Cn1c(-c2ccccc2)cnc1NCc1ccccc1,?,i,0,8.3,17,12,2.1,-7,74,-9
CCCCn1c(N)c(N(Cc2ccccc2OC)C(=O)CCC(C)C)c(=O)[nH]c1=O,-0.8,i,10,-1.4,20,14,-0.9,-2,2,1
CCOC(=O)N1CCC(Nc2c(NCCCN(CC)CC)c(=O)c2=O)CC1,11,i,1,?,11,14,-1.1,5,24,-4
CCNC(=S)Nc1cc(OCC)c(NC(=O)c2ccco2)cc1OCC,2.5,.,6,.,.,.,.,-8,2,2
COc1ccccc1-c1nnn(CC#N)n1,4.8,.,-17,.,.,.,.,-4,0,-2
COC(C[C@H]1O[C@@H]1[C@@H](O)[C@H](C)OCc1ccccc1)OC,-1.9,i,-15,2.1,1,12,3.4,-6,.,.
O=C1[C@H](O)[C@@H](O)C(=O)N1Cc1ccccc1,5.6,i,-2,-0.6,16,26,7.7,-5,.,-1
CSC[C@H](NC(=O)COc1cc2c(c3oc(=O)cc(C)c13)CCC(C)(C)O2)C(=O)O,3.1,i,1,-0.7,-2,1,4.9,2,-9,-4
COc1ccc(CNC(=O)CN2C(=O)CSc3ccc(S(=O)(=O)N4CCOCC4)cc32)c(OC)c1,3.5,i,-7,1.7,0,12,1.4,2,-1,5
O=C(NC12CC3CC(CC(C3)C1)C2)c1cc(F)c(F)cc1Cl,-0.4,i,-4,1.7,10,6,-1.3,-14,.,.
O=C(O)C1C2C=CC(CC2)C1C(=O)O (stereo not given),2.6,.,-3,.,.,.,.,2,-4,-4
C/C(=N\OCC(=O)NC12CC3CC(CC(C3)C1)C2)c1cc2ccccc2o1,3.9,i,38,15,-37,-55,13,-6,1,0
CC(C)C[C@H]1CN=C(Nc2ccccc2)N1CCc1ccc(F)cc1,.,i,.,1.7,11,-6,8.4,.,-21,90*
Cc1cc(C)c(S(=O)(=O)N2CCC3(CC2)OCCN3S(=O)(=O)c2cccs2)c(C)c1,-4.0,.,36,-0.9,-12,-20,-0.6,12,.,.
COc1ccc(NC(=O)c2c(C)nn(-c3ccccc3)c2Cl)cc1,-0.7,i,8,-2.4,4,-1,-1.3,18,.,2
O=C(NNC(=O)c1cccc(O)c1)Nc1ccc([N+](=O)[O-])cc1,0.0,i,-5,-3.2,20,20,1.4,23,-1,1
O=C(NC1CCCCC1)NC12CC3CC(CC(C3)C1)C2,5.7,i,-16,-3.8,11,3,3.2,-15,3,-2
CC1CN(S(=O)(=O)c2cc(C(=O)NCc3ccncc3)ccc2Cl)CC(C)O1 (stereo not given),.,i,.,1.0,2,6,-2.3,.,2,0
# Additional results
SMILES,RanGTP-Imp inh,FGF22 binding,T cruzi inh,MLL AF4-AF9 inh,rRNA inh HTS,rRNA inh HTS OD600,rRNA inh HTS RFP,Calb FLC,ALR inh,Beta apoptosis
CC(C)(Oc1ccc(C2CC2(Cl)Cl)cc1)C(=O)O (stereo not given),.,i,.,0.7,2,-5,33,.,-5,-3
OC(CNCc1ccc(Cl)cc1)COc1ccccc1 (stereo not given),-4.1,i,26,-0.5,4,-3,0.0,-7,.,-4
C=CCn1c(SCc2nc3scc(-c4ccccc4)c3c(=O)[nH]2)nnc1-c1ccccc1F,-6.0,.,5,.,.,.,.,-3,-4,-5
O=C(NCCCN1CCOCC1)c1cccc(NC(=O)c2ccccc2)c1,-0.4,i,-10,-3.0,2,0,3.0,4,.,-3
Nc1nc2ccccc2n1CCN1CCCC1,3.3,i,-2,13,.,.,.,-1,-2,1
COC(=O)NCC(c1ccco1)N1CCN(c2ccc(OC)cc2)CC1 (stereo not given),2.1,i,2,-25,4,11,0.0,-2,89*,-2
COCCN(C(=S)Nc1ccccc1OC)C1CCN(C(C)C)CC1,-0.9,i,-6,-2.7,11,7,2.2,1,.,0
COc1ccc(/C=N/NC(=O)CN(CCc2ccccc2)S(=O)(=O)c2ccc(NC(C)=O)cc2)cc1OC,-0.6,i,3,8.1,-7,-16,7.0,4,-4,-7
O=C(CN1C(=O)C2C3CC(C(Br)C3Br)C2C1=O)Nc1ccc(C(=O)O)cc1 (stereo not given),?,i,19,10,7,1,8.7,-7,-17,-5
C/C(=N/OC(=O)c1ccc(C)cc1)C(=O)c1ccc(Br)cc1,3.0,i,10,-6.5,7,4,1.9,8,36,13
Cc1cc(SCC(=O)N/N=C/c2cccnc2)nc2c(C)cccc12,-0.8,i,4,-2.0,14,2,-4.7,-29,-3,-4
Cc1ccc(C)c(S(=O)(=O)NCCCc2ccccc2)c1,-0.9,i,8,-4.7,-18,-33,-4.6,-10,0,-4
CCCOc1cccc(C(=O)NCCNC(=O)c2ccc(C)nc2)c1,-0.3,i,2,-2.7,1,-4,0.3,-8,1,-1
CS(=O)(=O)c1ccc(-c2cccc(NC(=O)c3ccc(Br)o3)c2)nn1,0.6,i,-1,0.8,11,11,2.2,-7,-2,-3
COc1ccc(NC(=O)/C(N=Nc2ccc(Cl)c(S(=O)(=O)Nc3ccc(Cl)cc3)c2)=C(\C)O)cc1,.,i,.,1.1,6,10,-1.1,.,-1,7
COc1ccc([N+](=O)[O-])cc1NC(=O)CC1SC(=Nc2cccc(C)c2C)N(/N=C/c2cccc(OC)c2OC)C1=O (stereo not given),-1.6,i,5,0.8&-1.9,12&16,20&12,3.6&11,?,-5,.
COc1ccc(-c2nn(-c3ccccc3)cc2/C=C2/SC(=S)N(CCC(=O)O)C2=O)c(C)c1,?,i,13,9.8,9,4,15,51,50,5
CCCOc1ccc(NC(=O)CC2C(=O)N(c3ccc(OCC)cc3)C(=S)N2C2CC2)cc1 (stereo not given),0.8,i,44,3.8,-6,-2,-1.8,6,-7,45
Cc1cc(-c2csc(NC(=O)c3ccccc3C(F)(F)F)n2)c(C)n1Cc1ccccc1,-2.7,.,-6,.,.,.,.,-12,.,-4
CC(=O)c1c(C)[nH]c(C(=O)Nc2ccc(S(=O)(=O)N(C)C)cc2)c1C,3.4,.,6,.,-9,-1,-0.3,0,-9,3
S=C(Nc1cccc2ccccc12)NN1CCOCC1,-1.4,.,-6,.,.,.,.,-1,21,-3
COc1ccc(CCNC(=O)C2CCCN2S(=O)(=O)c2cccc3nsnc23)cc1OC (stereo not given),-1.8,i,-8,3.4,1,5,-2.8,6,-3,2
Cc1cc(/C=C2\SC(=O)N(CC(=O)Nc3ccccc3F)C2=O)c(C)n1C,2.3,i,-1,-2.2,9,8,-3.1,-27,-2,-3
COc1ccccc1NC(=O)C1=C(C)NC(=O)NC1c1ccco1 (stereo not given),2.2,i,-9,-3.6,8,-8,1.4,-8,-10,3
O=C(CC1COc2ccccc2O1)NCCc1ccccc1 (stereo not given),-3.2,.,14,.,.,.,.,-1,-16,-5
# The listing continues:
SMILES,RanGTP-Imp inh,FGF22 binding,T cruzi inh,MLL AF4-AF9 inh,rRNA inh HTS,rRNA inh HTS OD600,rRNA inh HTS RFP,Calb FLC,ALR inh,Beta apoptosis
Cc1cc(C(=O)CSc2nnc(-c3ccc(OC(F)F)cc3)o2)c(C)n1Cc1cccs1,-2.5,.,-5,.,.,.,.,-2,-16,-6
O=C(CN1C(=O)c2ccccc2C1=O)c1ccc(F)cc1,1.9,i,4,-1.0,2,0,-1.4,-2,-5,-7
CC(C)OCc1ccc(C(=O)N2CCN(CC(=O)N3CCCC3)CC2)cc1,.,i,.,-1.5,3,9,0.4,.,-7,-4
O=C1CCC([N+](=O)[O-])C(c2ccc(Cl)c([N+](=O)[O-])c2)N1 (stereo not given),1.6,i,-10,0.0,13,14,-1.4,15,-1,-4
O=C(Nc1ccccc1-c1ccccc1)NC1CCN(CC(=O)N2CCOCC2)CC1,1.4,.,-2,.,.,.,.,7,.,-2
Cc1ccc2c(c1)N(C(=O)CCC(=O)Nc1ccccc1Br)CC(C)O2 (stereo not given),-3.2,.,9,-5.1,-15,-24,-6.5,-8,-10,-2
CSc1ccc(N2C(=O)NC3(CCCCC3)C2=O)cc1,0.2,.,-12,.,.,.,.,6,-3,-6
O=C(c1ccccc1Sc1cccc2ccccc12)N1CCOCC1,-4.6,.,-9,.,.,.,.,.,-14,-5
O=C(Cn1cc(C(F)(F)F)ccc1=O)N1CCc2ccccc21,.,i,.,-1.4,11,17,0.8,.,.,-5
CCCCOc1ccc(C(=O)N2CCCCCC2)cc1,1.4,.,4,.,.,.,.,?,3,2
Cc1ccc(/C=N/NC(=O)C2=NNC(c3ccccc3)(c3ccccc3)C2)c(O)c1,3.3,.,.,.,.,.,.,102*,-3,29
O=C1CCCC(O)=C1C1NCCc2ccccc21 (stereo not given),5.5,.,4,.,.,.,.,1,-13,0
COc1ccc(C2C(C#N)=C(N)OC3=C2C(=O)CCC3)c(OC)c1OC (stereo not given),-3.1,i,-3,-2.8,12,7,1.1,-11,1,0
COc1cccc(CC2(CO)CCCN(Cc3cc(F)ccc3-n3cccn3)C2)c1 (stereo not given),3.9,i,28,-3.4,0,0,1.2,-30,-5,.
Cn1c(CSCc2ccc(Cl)cc2Cl)n[nH]c1=S,1.5,i,-6,-3.0,-31,-31,-5.5,-4,-3,-8
Cn1ccnc1SCc1nc2c(cnn2-c2ccccc2)c(=O)[nH]1,2.9,i,-15,3.6,5,2,2.4,-2,0,-2
COc1ccccc1CCC(=O)OCC(=O)Nc1c(Br)cc(C)cc1Br,-1.7,i,-4,-0.3,3,5,6.0,-1,-4,.
CSc1nc(-c2ccccc2)nn1C(=O)c1ccc(Cl)cc1,0.0,.,-3,.,.,.,.,-2,-3,-4
Cc1cc(NS(=O)(=O)c2ccc(NC(=S)NC(=O)c3cccnc3)cc2)no1,-3.6,i,-14,-1.1,3,6,-2.2,2,66,.
CC(C)N(C(=S)Nc1cccnc1)c1ccccc1,3.2,i,-10,-11,18,11,2.1,-7,.,-4
Cc1nn(C)c(C)c1CS(=O)(=O)c1ccccc1,4.1,i,-10,-0.3,13,8,-0.5,0,-7,.
CC(=O)c1cccc(NC(=O)NC2CC3CCCC(C2)N3CC(C)C)c1 (stereo not given),-0.5,.,4,.,.,.,.,7,.,-3

# Assay outcomes from PubChem BioAssay.
